From PubChem BioAssay
TRPV1 PAM: HTS Assay for Compounds that Act as Potentiators of the Vanilloid Receptor 1. Transient receptor potential cation channel subfamily V member 1 (Homo sapiens), Q8NER1. TRPV1-expressing cells, Fluo-8 calcium influx, capsaicin EC20 potentiation; host cell line not named in the record; control for the full effect not named in the record. potentiation, % at 8.33 µM. 320,000 tested, 0.02% active. AID 540277, 2011; active means potentiation above 80%; inconclusive means 30% to 80%; inactive means below 30%; further: 0% is about no effect
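Cells expressing TRPV1 were dye-loaded with Fluo-8 and read kinetically: 10 s baseline, 3 min after compound (agonist portion), then 2 min after EC20 capsaicin (allosteric enhancer portion). Calcium-bound dye fluorescence at 480/520 nm.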
Six1-Eya2 inh: qHTS Assay for Inhibitors of the Six1/Eya2 Interaction; Homeobox protein SIX1 (Homo sapiens) + Protein phosphatase EYA2 (Homo sapiens), …; AlphaScreen GST-Six1/His-Eya2 binding, biochemical; hits give low values; control for the full effect not named in the record; activity change, % (no concentration beside the values); 360,000 tested, 0.56% active; AID 651725, 2012; in the data active = activity change below about -65%; inconclusive = about -30% to -65%; inactive = above about -30%; further: on the % scale 0 is the no-effect control and ±100 the full control effect; compound concentration not given in the record
Target sequence (O00167 whole entry, looked up): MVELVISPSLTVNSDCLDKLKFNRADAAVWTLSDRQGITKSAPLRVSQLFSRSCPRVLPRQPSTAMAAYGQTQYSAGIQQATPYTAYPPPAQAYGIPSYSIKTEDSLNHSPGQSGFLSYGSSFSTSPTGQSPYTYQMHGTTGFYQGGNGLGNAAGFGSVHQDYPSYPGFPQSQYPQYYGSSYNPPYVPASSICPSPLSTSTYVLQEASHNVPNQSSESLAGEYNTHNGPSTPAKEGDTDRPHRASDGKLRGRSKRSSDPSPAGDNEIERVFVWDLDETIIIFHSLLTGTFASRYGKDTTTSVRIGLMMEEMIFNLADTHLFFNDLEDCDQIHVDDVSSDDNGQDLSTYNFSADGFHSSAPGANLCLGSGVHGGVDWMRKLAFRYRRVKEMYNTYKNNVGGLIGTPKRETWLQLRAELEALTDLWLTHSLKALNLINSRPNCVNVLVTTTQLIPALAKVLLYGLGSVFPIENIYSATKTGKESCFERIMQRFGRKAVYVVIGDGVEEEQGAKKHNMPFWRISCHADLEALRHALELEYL
Target sequence (Q15475 whole entry, looked up): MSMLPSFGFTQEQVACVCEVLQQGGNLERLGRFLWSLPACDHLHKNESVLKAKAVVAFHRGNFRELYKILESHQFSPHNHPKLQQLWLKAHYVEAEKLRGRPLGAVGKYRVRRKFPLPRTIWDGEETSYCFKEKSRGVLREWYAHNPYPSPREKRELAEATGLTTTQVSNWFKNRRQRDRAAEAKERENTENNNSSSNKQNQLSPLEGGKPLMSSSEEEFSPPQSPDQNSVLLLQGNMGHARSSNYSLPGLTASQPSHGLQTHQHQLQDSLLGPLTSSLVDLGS
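Homogeneous AlphaScreen proximity assay pairing GST-Six1 with His-tagged Eya2 (added as 5X mix: 250 nM and 500 nM) in 50 mM Tris pH 8.0, 300 mM NaCl, 1 mM TCEP. Glutathione donor and nickel acceptor beads; 1 h, 37 °C, dark.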
D2 potentiator: Beta-Arrestin HTS for Positive Allosteric Modulators of the Human D2 Dopamine Receptor: Potentiators | 360,000 tested, 0.23% active | AID 624464, 2012 | D(2) dopamine receptor (Homo sapiens), P14416 | potentiation, % (no concentration beside the values) | DiscoveRx D2 beta-arrestin cells, luminescence, 90 min; 100% = 57 uM dopamine signal; active = potentiation of 50% or more; inconclusive = 30% to 50%; inactive = 30% or less;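 further: compound concentration not given in the record; tested on top of an EC20 dose of dopamine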
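PathHunter D2 cells, attached overnight at 37 deg C, received compound in DMSO plus dopamine at EC20 (50 nM final) for 90 min at 37 deg C. Beta-arrestin recruitment was read as luminescence after 1 h with detection reagent at ambient temperature.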
TRPML1 ag: qHTS for Agonists of the Human Mucolipin Transient Receptor Potential 1 (TRPML1); AID 624414, 2012; TRPML1-expressing cells, Ca2+ dye fluorescence, FDSS; host cell line not named in the record; reference of the full effect not given here; Mucolipin-1 (Homo sapiens), Q9GZU1; 410,000 tested, 0.12% active; activation, % (concentration not given with the values); in the data active = activation above about 50%; inconclusive = about 30% to 50%; inactive = below about 30%; further: 0% is about no effect; the text of the record puts the active cut at 80%
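Agonist activity was taken from a 110 s kinetic Ca2+ dye read on the FDSS after pinning compounds onto TRPML1-DL cells. The cells were seeded at 1,500/well with Tet inducer, incubated about 16 h, then dye-loaded at room temperature.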
CtBP-E1A inh: qHTS Assay for Inhibitors of the CtBP/E1A Interaction; CtBP / adenovirus E1A interaction (AlphaScreen); AlphaScreen GST-E1A/His-CtBP binding, 1536-well; hits give low values; control for the full effect not named in the record; activity change, % (no concentration beside the values); 340,000 tested, 0.49% active; AID 651724, 2012; in the data active means activity change below about -65%; inconclusive means about -30% to -65%; inactive means above about -30%; further: on the % scale 0 is the no-effect control and ±100 the full control effect; compound concentration not given in the record
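GST-E1A and His-tagged CtBP (125 nM each as 5X stock) were preincubated with pin-transferred compound for 2 h at 37 °C in the dark, then glutathione donor and nickel acceptor beads were added for 1 h before AlphaScreen reading.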
TRPML1 blocker: qHTS for Inhibitors of the Human Mucolipin Transient Receptor Potential 1 (TRPML1); AID 624415, 2012; activity change, negative = inhibition, % (no concentration beside the values); TRPML1-inducible cells, Ca2+ dye fluorescence, FDSS; hits give low values; inhibition of EC80 agonist-evoked calcium signal; 390,000 tested, 0.02% active; Mucolipin-1 (Homo sapiens), Q9GZU1; in the data active means activity change below about -50%; inconclusive means about -30% to -50%; inactive means above about -30%;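 further: stimulus is agonist 54-4 at its EC80 concentration; on the % scale 0 is the no-effect control and ±100 the full control effect; compound concentration not given in the record; the text of the record puts the active cut at -80%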
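Calcium fluorescence in TRPML1-DL cells induced overnight with Tet: a 110 s read after compound pin addition, then a 110 s antagonist read after challenge with 54-4 at 4 uM final (EC80).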
Numbers without * were called inactive; ? = inconclusive; · = not tested or not shown; & = joins results of further samples.

SMILES | TRPV1 PAM | Six1-Eya2 inh | D2 potentiator | TRPML1 ag | CtBP-E1A inh | TRPML1 blocker
O=C(NC1CC1)C1CCN(C2CCN(C(=O)Cc3ccc(F)cc3)CC2)CC1 | 5 | -2 | -2 | -1.2 | 4 | -15
CN(CC(=O)Nc1ccccc1C(F)(F)F)C(=O)C1=COCCO1 | -4 | 2 | 25 | -0.3 | -2 | 10
Brc1cc2c(cc1-c1nc3ccccc3s1)OCO2 | 15 | 40 | 1 | 1.3 | 18 | -1
O=C(COC(=O)CCc1nc2ccccc2c(=O)[nH]1)NC1CCS(=O)(=O)C1 (stereo not given) | 5 | 6 | -6 | 0.1 | · | -9
Cc1cccc(NC(=O)NCCN2CCN(c3ccccc3)CC2)c1C | -9 | 1 | -29 | -0.5 | 1 | -3
CCn1cc(C(=S)N2CCC(C(N)=O)CC2)c2ccccc21 | 3 | 1 | -4 | -0.9 | 4 | 4
CCCOc1ccc(/C(O)=C2/C(=O)C(=O)N(CCN3CCOCC3)C2c2ccccc2)cc1 (stereo not given) | · | -6 | 1 | · | -16 | ·
CCN=C1SC(C(N)=O)CC(=O)N1CC (stereo not given) | -19 | 2 | -9 | 0.5 | 7 | 1
CCn1c(=NC(=O)C2COc3ccccc3O2)sc2c(OC)ccc(OC)c21 (stereo not given) | -10 | -4 | -11 | 0.5 | · | 39
C1CCN(c2nc3nonc3nc2N2CCCCC2)CC1 | -16 | 4 | -6 | 0.7 | 3 | -7
CC(C)c1ccc(OCC(=O)Nc2c3c(nn2C(C)(C)C)CS(=O)(=O)C3)cc1 | 2 | 9 | 57* | 2.9 | -22 | -9
CCOc1cc(NS(=O)(=O)c2ccc(OC)cc2)c(OCC)cc1NC(C)=O | 4 | -20 | 12 | -0.7 | 2 | -17
Nc1cc(N)nc(SCc2nnnn2-c2ccc(Cl)cc2)n1 | -3 | 8 | 5 | -0.1 | -9 | -5
CC(C)Nc1nc(NC2CCCC2)nc(N2CCOCC2)n1 | 9 | -8 | -16 | 0.0 | 2 | -8
CC1Oc2ccccc2N(CC(=O)N2CCCC2)C1=O (stereo not given) | 19 | 4 | -15 | -0.6 | 3 | 9
COC(=O)CNC(=O)COC(=O)c1cc(Cl)cc(Cl)c1N | -9 | 7 | 7 | 4.6 | 7 | 3
CN(Cc1ccc(Cl)c(Cl)c1)C(=O)C1CSC2(C)CCC(=O)N12 (stereo not given) | 4 | -4 | -3 | -0.6 | 3 | 17
O=C(NCc1cccnc1)C(=O)NCC1OCCCN1S(=O)(=O)c1ccc(F)cc1 (stereo not given) | -9 | 2 | -11 | 0.6 | -6 | 6
Cc1ccccc1CN(c1ccc(C(N)=O)cc1)S(C)(=O)=O | 3 | -2 | -3 | 2.2 | -10 | -3
NS(=O)(=O)c1ccc(CCNC(=O)C2CCCN(S(=O)(=O)c3cccnc3)C2)cc1 (stereo not given) | 0 | -2 | 0 | 0.3 | 5 | 3
CSC(SC)=C(C(C)=O)C(=O)c1ccc(C)cc1 | 2 | 3 | -8 | 0.2 | 9 | -8
O=C(CSCc1ccc([N+](=O)[O-])cc1)N/N=C/c1cccnc1 | 1 | 10 | -9 | -0.3 | 1 | 83
Cc1cc(O)c(C(C)C)cc1NC(=O)Nc1ccc([N+](=O)[O-])cc1 | · | 4 | -18 | 0.2 | -10 | -7
Cc1ccc(-c2nc(CS(=O)CC(=O)NCc3ccco3)c(C)o2)cc1 (stereo not given) | -8 | 0 | 8 | 0.3 | -3 | 27
Cc1nc2ccc(S(=O)(=O)N(C)CC(=O)NC(C)c3ccccc3)cc2s1 (stereo not given) | -16 | 1 | -2 | -1.2 | -2 | -3
Cc1ccc(S(=O)(=O)N[C@H](C(=O)NC2CCC(C)CC2)C(C)C)cc1 (stereo not given in full) | · | 4 | -2 | 0.3 | 5 | -4
O=C(NCc1ccc2c(c1)OCO2)c1ccc(COc2cccc(Cl)c2)o1 | 7 | -17 | -2 | 0.8 | 5 | -4
CC(C)(C)c1ccc(S(=O)(=O)Nc2noc3ccccc23)cc1 | ? | 22 | -52 | 0.7 | · | 6
CCOC(=O)N1C(=O)[C@](c2ccc(Cl)cc2)(C(C)C)N1C(=O)OCC | -9 | -3 | -9 | -0.4 | 1 | -18
CC(=O)C1=C(C)NC(SCC(=O)c2cc(Cl)ccc2Cl)=C(C#N)C1c1ccco1 (stereo not given) | 0 | -14 | -13 | 1.3 | -1 | -5

Reformatted: results already given.
Below each SMILES: TRPV1 PAM | Six1-Eya2 inh | D2 potentiator | TRPML1 ag | CtBP-E1A inh | TRPML1 blocker
- Cc1ccc(-c2nc(CS(=O)CC(=O)NCc3ccco3)c(C)o2)cc1 (stereo not given)
 : -8 | 0 | 8 | 0.3 | -3 | 27
- Cc1nc2ccc(S(=O)(=O)N(C)CC(=O)NC(C)c3ccccc3)cc2s1 (stereo not given)
 : -16 | 1 | -2 | -1.2 | -2 | -3
- Cc1ccc(S(=O)(=O)N[C@H](C(=O)NC2CCC(C)CC2)C(C)C)cc1 (stereo not given in full)
 : · | 4 | -2 | 0.3 | 5 | -4
- O=C(NCc1ccc2c(c1)OCO2)c1ccc(COc2cccc(Cl)c2)o1
 : 7 | -17 | -2 | 0.8 | 5 | -4
- CC(C)(C)c1ccc(S(=O)(=O)Nc2noc3ccccc23)cc1
 : ? | 22 | -52 | 0.7 | · | 6
- CCOC(=O)N1C(=O)[C@](c2ccc(Cl)cc2)(C(C)C)N1C(=O)OCC
 : -9 | -3 | -9 | -0.4 | 1 | -18

Additional structures
SMILES | TRPV1 PAM | Six1-Eya2 inh | D2 potentiator | TRPML1 ag | CtBP-E1A inh | TRPML1 blocker
Cc1cccc(NC(=O)c2nc[nH]c2C(=O)NCCN(CCNC(=O)c2[nH]cnc2C(=O)Nc2cccc(C)c2)CCNC(=O)c2[nH]cnc2C(=O)Nc2cccc(C)c2)c1 | · | 6 | -6 | 0.1 | 7 | 9
NS(=O)(=O)c1ccc(NC(=S)NCCc2ccccc2)cc1 | 0 | 11 | -12 | -0.1 | · | 1
O=C(N/N=C/c1ccccn1)c1cc(-c2cccc3ccccc23)n[nH]1 | 1 | -14 | 2 | 0.5 | ? | -9
Cc1c(C)c(C)c(S(=O)(=O)N2CCSCC2)c(C)c1C | 1 | -1 | 2 | 5.4 | 4 | 14
CC(=O)c1cnn(-c2nc3c(C)cccc3s2)c1C | 1 | 12 | -8 | -0.3 | 1 | 21
Cc1ccnn1CC(=O)N/N=C/c1c[nH]c2ccccc12 | 1 | -9 | -2 | -0.4 | -4 | 6
O=C1OC2(CCCCC2)OC(=O)C1=CNc1nc2ccccc2s1 | 6 | 0 | -7 | 0.7 | 12 | 11
COc1ccc(Nc2nc(N3CCCCC3)c3ccccc3n2)cc1 | -21 | -10 | -19 | 0.3 | -6 | -2
O=C(C[n+]1cc(Br)cc(Br)c1)c1ccc(Cl)cc1 | 4 | -6 | 2 | -0.5 | -18 | -4
Cc1noc(C)c1COC(=O)c1ccc2c(c1)OCO2 | -12 | 7 | -2 | -0.8 | 10 | 6
COc1cccc(NC(=O)CSc2nc3ccccc3nc2N2CCOCC2)c1 | -5&-15 | 21 | 2 | 0.8&4.7 | 29 | 4&-12
CCn1c(N)c(Br)c(=O)[nH]c1=O | 6 | 3 | -42 | 2.6 | · | 3
COc1ccc(C(=O)N(C)C(C)c2nccs2)cc1OC1CCN(C(C)=O)CC1 (stereo not given) | · | -1 | -12 | 0.2 | 3 | -9
O=[N+]([O-])c1ccc(Cl)c(/C=N/N2CCN(Cc3ccccc3Cl)CC2)c1 | 1 | -28 | -25 | 1.3 | -20 | -20
COc1ccccc1N(CC(=O)Nc1cc(C)on1)S(=O)(=O)c1cccc(C(F)(F)F)c1 | -5 | -2 | 1 | 0.2 | 5 | 9
COc1ccc(NC(=O)C2CC(=O)N/C(=N/NC(=O)c3ccc(Cl)cc3)S2)cc1 (stereo not given) | · | -20 | -7 | -0.7 | -11 | 0
CCCCNCCS(=O)(=O)NCc1ccccc1 | · | 2 | -17 | -0.4 | 4 | -10
CCOC(=O)CNC(=O)c1cccnc1Oc1ccc(Cl)cc1 | -3 | -14 | -2 | -0.8 | 1 | -10
Cc1cc(C)cc(NC(=O)C2CCCN(c3nccc(C)n3)C2)c1 (stereo not given) | -12 | -1 | -15 | 2.8 | 2 | 6
O=C(COC(=O)c1cnccn1)c1ccc(OC(=O)c2ccccc2)cc1 | 10 | -2 | -9 | 0.0 | -12 | 9
CCOC(=O)[C@]12CCC=C1N(Cc1ccccc1)C(=O)[C@H](CC(=O)N1CCCCC1)C2 | · | 8 | · | -0.6 | -2 | ·
CCOC(=O)Cc1csc(NC(=O)COc2ccccc2OCC)n1 | 5 | 7 | -11 | 1.3 | -5 | -8
Cc1cc(C)n(-c2nnc(Cl)c3ccccc23)n1 | 3 | 3 | -6 | -0.2 | -5 | -1
Cc1cccnc1NC(=O)COc1ccc2c(c1)CCC2 | -16 | 1 | -16 | 1.3 | -7 | 13
CC(=O)Oc1ccc(Cn2c(C)c(C(=O)NCc3ccccc3C(F)(F)F)sc2=O)cc1 | · | -2 | -5 | -0.5 | 2 | ·
O=C1OCCN1C(=O)[C@H]1[C@H](c2ccc([N+](=O)[O-])cc2)C(c2ccccc2)=NN1c1ccccc1 | · | -17 | · | -0.6 | -16 | -2
CCCCn1c(CN2CCN(C(=O)c3ccco3)CC2)nc2c1c(=O)n(C)c(=O)n2C | 21 | -20 | 1 | -0.6 | -21 | 6
CCCCN(C(=O)c1ccc2c(c1)S(=O)(=O)N=C1CCCCCN12)c1c(N)n(CCCC)c(=O)[nH]c1=O | 9 | 3 | -12 | 2.0 | 6 | 16
CNc1nc(-c2ccc3c(c2)CCN3C(=O)c2ccc(F)cc2)cs1 | 3 | -8 | -13 | 1.5 | · | -7
CC(C)c1ccc2oc(-c3ccc(NC(=O)c4ncn[nH]4)cc3)nc2c1 | ? | ? | 12 | 0.5 | -5 | 30
CCOC(=O)N1CCN(C(=O)COC(=O)C2CCN(S(=O)(=O)c3ccc(C)c(C)c3)CC2)CC1 | -21 | 7 | -23 | 1.2 | 8 | -13
COC(=O)c1ccccc1NC(=O)Oc1ccc(C(C)C)cc1 | · | 4 | -7 | -0.2 | 2 | 7
O=C(NC1=NCCS1)C1Cc2ccccc2CN1C(=O)c1ccccc1 (stereo not given) | -1 | -2 | 3 | -1.0 | -5 | 14
Cc1ccc(N(CC(=O)Nc2c(C)n(C)n(-c3ccccc3)c2=O)S(C)(=O)=O)cc1C | 10 | -4 | -4 | 2.3 | 7 | 2
COc1ccccc1/C=C(/C(=O)NCCCn1ccnc1)c1ccccc1 | 5 | -11 | -4 | 0.2 | 6 | -8
Oc1ccc(/C=N/Nc2ccc(C(F)(F)F)cn2)cc1 | 6 | -6 | 1 | -0.6 | -6 | -5
